Screening data as filed in PubChem.
Mtb betalactam – beta-lactam sensitization of Mtb H37Rv, H37Rv; M. tuberculosis H37Rv growth with meropenem, percent inhibition; hits of this screen are not shown here; inhibition, % at 25 µM; actives 0.27% (n = 330,000);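 active means about 74% or more and at least 40 points above the plate without the antibiotic, then above 30% in a dose series; inconclusive means first-round hits that could not be retested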;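 further: growth measured after seven days incubation then overnight dye step; 0% = bacteria only wells and 100% = bacteria with antibiotic; twin plates without the antibiotic show which effects depend on it; some results filed as inactive read as strong as hits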
Mtb H37Rv – M. tuberculosis H37Rv growth inhibitors, H37Rv strain (AID 1626); inhibition, % at 10 µM; hits with a dose series show IC50 in µM; actives 0.95% (n = 220,000); M. tuberculosis H37Rv growth inhibition; higher % means a stronger effect;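 active means confirmed in a dose series; inconclusive means inhibition above 80% but not taken into the dose series; inactive means below 80% or under 30% at every dose of the series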;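 further: bacteria incubated seven days before Alamar blue readout; 0% = bacteria only wells and 100% = bacteria with antibiotic wells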
YopH inh – YopH tyrosine phosphatase inhibitors, primary screen, biochemical, fluorescence Ex485/Em525 | YopH tyrosine phosphatase [Yersinia enterocolitica] | inhibition, %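 (about 10 µM by stock and volumes)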 | actives 0.16% (n = 140,000);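 active means inhibition of 50% or more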;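 further: controls were vehicle for no effect and minimum signal wells for full effect; inactives centre near -20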
RecA splice inh – Mtb RecA intein splicing inhibitors, primary screen, biochemical, fluorescence, HTS | cell-free RecA intein splicing | Protein RecA (Mycobacterium tuberculosis (strain ATCC 25618 / H37Rv)), P9WHJ3 | inhibition, %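 (about 9 µM by stock and volumes)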 | actives 0.75% (n = 290,000); in the data active means inhibition above about 30%; inconclusive means no clear call, values can overlap the other calls;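 further: 0% = vehicle wells and 100% = reference inhibitor control wells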
Target sequence (P9WHJ3 whole entry, looked up, canonical isoform): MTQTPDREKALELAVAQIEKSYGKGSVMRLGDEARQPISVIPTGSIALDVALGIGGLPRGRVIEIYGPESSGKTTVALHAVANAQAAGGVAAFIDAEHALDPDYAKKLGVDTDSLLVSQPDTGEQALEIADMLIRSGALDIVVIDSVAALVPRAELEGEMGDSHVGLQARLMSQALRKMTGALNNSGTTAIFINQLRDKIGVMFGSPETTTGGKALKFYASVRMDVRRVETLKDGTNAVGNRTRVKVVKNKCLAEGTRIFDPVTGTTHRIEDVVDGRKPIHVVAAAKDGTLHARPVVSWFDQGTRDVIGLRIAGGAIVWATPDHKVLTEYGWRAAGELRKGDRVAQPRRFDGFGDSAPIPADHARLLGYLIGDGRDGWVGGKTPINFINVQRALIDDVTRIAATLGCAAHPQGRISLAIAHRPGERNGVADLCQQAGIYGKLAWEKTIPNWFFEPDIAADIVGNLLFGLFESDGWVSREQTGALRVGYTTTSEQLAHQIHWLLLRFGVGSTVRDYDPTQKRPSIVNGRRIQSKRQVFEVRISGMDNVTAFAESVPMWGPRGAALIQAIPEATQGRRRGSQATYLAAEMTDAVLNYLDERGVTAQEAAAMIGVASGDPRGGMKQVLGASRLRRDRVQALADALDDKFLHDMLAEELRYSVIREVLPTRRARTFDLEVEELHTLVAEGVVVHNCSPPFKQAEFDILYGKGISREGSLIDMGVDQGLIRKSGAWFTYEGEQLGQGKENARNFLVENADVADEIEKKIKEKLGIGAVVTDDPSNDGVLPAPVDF
Arbovirus inh – antivirals against arbovirus infection, primary screen, cell-based, full library, 10K replicate subset. inhibition, % at 10 µM. arbovirus infection cell-based antiviral screen. AID 1251, 2008. actives 0.37% (n = 200,000);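 active means inhibition from about 30%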;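 further: bluetongue infection of BSR cells; cell survival read as ATP light after 72 h; 0% = infected wells without compound and 100% = uninfected wells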
Active calls of the source: *; ? = inconclusive; / = no result given. Not all compounds are listed; the hit share may differ from the screen's.

SMILES	Mtb betalactam	Mtb H37Rv	YopH inh	RecA splice inh	Arbovirus inh
O=C(Nc1ccccc1)N(CCCN1CCOCC1)Cc1cc2cc3c(cc2[nH]c1=O)OCCO3	4	-3%	-8	2.8	4
O=c1c2[nH]cnc2n(-c2ccccc2)c(=O)n1Cc1ccccc1	1	/	/	0.5	/
O=C(NC1CC1)c1ccc(F)cc1Cl	-8	1%	-14	0.9	3
CCOC(=O)C1CCCN(S(=O)(=O)c2cnc(Cl)c(Br)c2)C1 (stereo unspecified)	5	/	/	-0.5	/
Cc1ccc(S(=O)(=O)NCC2CCC(C(=O)NCCCOC(C)C)CC2)cc1 (stereo unspecified)	-1	-6%	-15	0.2	0
COc1cccc(NS(=O)(=O)c2ccc(NC(C)=O)cc2)c1	-3	-3%	-28	-3.4	10
Cc1ccc(NC(=O)C(Cc2ccccc2)NC(=O)c2ccco2)cc1 (stereo unspecified)	3	-4%	2	-2.6	-3
COc1ccc(CCN(C)C(=O)c2cccc(S(=O)(=O)NCc3ccccc3)c2)cc1OC	1	/	/	-0.8	/
COc1ccc(COn2c(=O)c(C)[n+]([O-])c3ccccc32)cc1OC	0	7%	-25	-1.5	4
CSc1ccccc1NC(=O)CSc1nncs1	2	0%	/	-1.1	9
CCCCCc1ccc(-c2cn(Cc3ccc(C(=O)c4ccccc4)cc3)nn2)cc1	-17	/	/	0.1	/
CCO[C@H]1OC(C(=O)Nc2ccccc2)=C[C@@H](c2ccc(Br)cc2)[C@@H]1CCCO	6	4%	/	9.8	-19
COc1cccc(CNc2ccc3c(c2)ncn3C(C)C)c1OC	5	-1%	-39	-5.0	10
COc1ccc(NC(=O)CSCC(=O)Oc2c(OC)cccc2OC)cc1	5	/	/	-2.6	/
CCCCCc1ccc(CC(=O)N2CCOCC2)cc1	-7	/	/	-2.2	/
O=C(Nc1ccccc1)C1=C[C@@H](c2ccc(Br)cc2)C[C@@H](OCCCCO)O1	4	-1%	/	7.3	-13
CC(=O)Nc1cccc(C(=O)OCc2ccc(C(=O)Oc3ccc(Cl)cc3)cc2)c1	99	?	-36	1.9	7
Cc1ccc(NC(=O)CSc2nnc(-c3cccnc3)n2-c2ccc(C)cc2)cc1	1	-10%	-28	0.5	-4
O=[N+]([O-])c1ccc(NC2CCCC2)c2ccncc12	0	/	/	0.0	/
O=C(C[n+]1cccc(NC(=O)c2ccccc2)c1)c1ccc(NC(=O)c2ccccc2)cc1	25	/	-26	5.5	-12
CC(C)(C)NC(=O)COC(=O)c1ccccc1C(=O)c1ccccc1	-2	8%	/	0.3	-2
Cc1ccccc1OC(C)C(=O)Nc1ccc2c(c1)OCO2 (stereo unspecified)	-6	/	/	3.7	/
COc1cccc(N2CCN(C(=O)c3cc4c(s3)-c3ccccc3OC4)CC2)c1	1	/	/	6.4	/
CC(C)CNC(=O)N1c2ccccc2Sc2ccccc21	19	-5%	/	-0.6	/
COc1cc(OC)cc(C(=O)NCC(=O)OCC(=O)c2cc(OC)ccc2OC)c1	3	-2%	-31	-0.7	0

Additional results:
SMILES	Mtb betalactam	Mtb H37Rv	YopH inh	RecA splice inh	Arbovirus inh
Cc1csc(NC(=O)c2ccc(S(=O)(=O)N3CCN(C)CC3)cc2)n1	-2	/	/	0.9	/
CCCCCC(=O)Nc1cccc(C2=NOC3(C2)C[C@@H](C(N)=O)N(C(=O)c2ccc(Cl)cc2)C3)c1 (stereo partly specified)	-1	1%	/	1.9	/
O=S(=O)(/C=C/c1cccc(Br)c1)N1CCOCC1	2	/	/	-0.3	/
CC(C)c1cc(N=NC(N)=O)cc(C(C)C)c1O	-5	-1%	/	-0.3	-3
COc1ccccc1CCC(=O)Nc1cccc(S(=O)(=O)N2CCOCC2)c1	?	/	/	-1.1	/
CN(Cc1ccccc1)Cc1nc2c(c(=O)n(C)c(=O)n2C)n1Cc1ccc(F)cc1	8	-2%	-35	3.2	-10
COc1cc(Cl)c(NS(=O)(=O)c2c(C(=O)N3CCCC3)c(C)n(C)c2C)c(OC)c1	3	/	/	0.1	/
CN(C(=O)c1cc(C(=O)N(C)c2ccccc2)cc([N+](=O)[O-])c1)c1ccccc1	5	/	/	-1.3	/
CCCCCCOc1ccc(C(CC(=O)O)C(N)=O)cc1 (stereo unspecified)	-5	0%	-45	0.0	3
Cc1ccc2nc(-c3ccc(-c4ccccn4)s3)cn2c1	3	-4%	/	0.7	/
CC(O)(C#CCN1CCOCC1)c1ccccc1 (stereo unspecified)	/	/	-11	2.6	-4
C=CCOc1ccc(/C=N/n2nnnc2N)cc1OC	2	/	/	1.2	/
CCOC(=O)C1CCN(c2ccc(C(N)=O)cc2[N+](=O)[O-])CC1	/	17%	-15	2.3	-2
COCCCN(C(=O)CCOc1ccccc1C)c1c(N)n(Cc2ccccc2)c(=O)[nH]c1=O	-5	/	/	2.7	/
COc1cccc(C(=O)N2CCN(c3ncccn3)CC2)c1	-7	-4%	-51	-1.0	2
N=c1n(CCCOc2ccc(Br)cc2)c2ccccc2n1CC(N)=O	-2	5%	/	-2.5	/
COc1ccc(N2CCN(CCNS(=O)(=O)c3ccc(C)cc3)CC2)cc1	-3	/	/	-4.9	/
O=C(Nc1cc(Cl)ccc1Cl)c1ccc(OC(=O)c2ccco2)cc1	85	64%	-4	0.0	4
CC(C)CCN1CCN(CC#Cc2ccccc2)CC1CCO (stereo unspecified)	-1	8%	/	-2.9	-7
O=C(NCC1CCCO1)C1c2ccccc2Oc2ccccc21 (stereo unspecified)	-2	-3%	/	0.6	4
COc1ccc(N2C(=O)C(CC(=O)Nc3ccc(F)cc3)N(CCc3ccc(OC)c(OC)c3)C2=O)cc1 (stereo unspecified)	-7	0%	/	-2.3	9
COc1ccc(Oc2ccc(C(F)(F)F)cc2N)cc1	3	-1%	/	/	/
COc1ccc(C2Nc3ccccc3C(=O)N2c2ccccc2)cc1COc1ccccn1 (stereo unspecified)	-1	7%	-39	0.4	-1
O=C(COc1ccccc1Cl)Nc1cnn(Cc2ccccc2)c1	-1	10%	10	1.3	-12
COc1ccc(CNC(=O)CNC(=O)CNS(=O)(=O)c2ccc(C)c(C)c2)cc1	-4	/	/	-3.4	/

(further entries)
SMILES	Mtb betalactam	Mtb H37Rv	YopH inh	RecA splice inh	Arbovirus inh
COc1ccc(NC(=S)NC(=O)c2cc3ccccc3o2)c(OC)c1	4	/	/	-1.8	/
Cc1ccc(Cn2ccsc2=NC(=O)COC(=O)c2ccc(O)cc2O)cc1	1	/	/	4.4	/
CCOC(=O)C1CCCN(c2c(N3CCN(c4ccccn4)CC3)c(=O)c2=O)C1 (stereo unspecified)	0	-11%	-19	/	2
FC(F)(F)c1nnc2ccc(N3CCCCCC3)nn12	-2	-1%	-33	/	-14
Oc1ccccc1CN1CCCN(Cc2ccccc2O)C1	-2	2%	-89	1.1	70*
COc1ccc(CCN(C(=O)C(F)(F)F)C(C(=O)NC2CCCCC2)c2cccs2)cc1 (stereo unspecified)	-3	4%	2	-0.6	3
O=C(Cc1ccc(Cl)cc1)NCCCNC(=O)c1cccnc1	-8	/	/	-0.6	/
O=C(O)c1oc2ccccc2c1-n1cccc1	2	-4%	-17	/	9
COc1ccc(F)cc1C(=O)C1CCCN(Cc2cn(C)c3ccccc23)C1 (stereo unspecified)	-2	4%	/	7.2	-30
O=C(CSc1nc2ccccc2c(=O)n1-c1ccccc1)N1CCCc2ccccc21	2	5%	-26	0.4	24
Nc1nc(SCc2ccccc2Cl)nc2nc3c(cc12)CCCC3	-11	-3%	-11	-0.6	7
COC(=O)C1c2ccccc2-c2ccccc21	/	-2%	/	/	-4
O=C(COC(=O)Cc1c[nH]c2ccccc12)NC1CCCCC1	1	6%	/	1.3	0
Cc1nn(-c2ccccc2)c2[nH]c(C(F)(F)F)cc(=O)c12	-1	2%	-15	4.0	16
CCN(CC)C(=O)Cn1cc(C(=O)C(=O)NCCCn2ccnc2)c2ccccc21	10	/	/	16	11
Cc1nc2cc(Cl)ccc2n1-c1ccccc1	2	-2%	-17	7.2	10
CC(=NCC1CCCO1)c1c(O)n(C)c(=O)n(C)c1=O (stereo unspecified)	5	-4%	-8	-3.7	14
Clc1ncn(CCOc2ccccc2)c1Cl	-8	-4%	/	/	0
CCOc1ccc2[nH]c3c(NCC(C)C)ncnc3c2c1	10	/	/	3.6	/
COC(=O)c1cc(OC)c(OC)cc1NC(=S)N1CCN(Cc2ccccc2)CC1	-3	-5%	-34	-1.4	1
COc1cccc(Cn2c(Oc3cccc(C)c3)nc3c2c(=O)n(C)c(=O)n3C)c1	11	3%	-38	0.9	-5
CC1CCc2c(nc3sc4c(c3c2N)CCCC4)C1 (stereo unspecified)	96	?	-33	0.3	13
COc1ccccc1OCCOc1ccc(/C=N/n2cnnc2)cc1	15	-6%	-24	/	-8
Cc1ccc(NC(=O)c2ccc([N+](=O)[O-])cc2Cl)nc1	-12	2%	-37	/	-1
O=C(NOC(=O)c1cc(Br)ccc1Cl)c1cccs1	-7	2%	-42	/	12

Retrieved one by one from above, two records:
SMILES	Mtb betalactam	Mtb H37Rv	YopH inh	RecA splice inh	Arbovirus inh
COc1ccc(C2Nc3ccccc3C(=O)N2c2ccccc2)cc1COc1ccccn1 (stereo unspecified)	-1	7%	-39	0.4	-1
COc1cccc(N2CCN(C(=O)c3cc4c(s3)-c3ccccc3OC4)CC2)c1	1	/	/	6.4	/

Profiles, quoted from the list. Screens in order: Mtb betalactam, Mtb H37Rv, YopH inh, RecA splice inh, Arbovirus inh
Listed for Cc1ccc(NC(=O)c2ccc([N+](=O)[O-])cc2Cl)nc1 : -12, 2%, -37, /, -1
Listed for FC(F)(F)c1nnc2ccc(N3CCCCCC3)nn12 : -2, -1%, -33, /, -14

Five structures from above, arranged by SMILES length, rising.
SMILES	Mtb betalactam	Mtb H37Rv	YopH inh	RecA splice inh	Arbovirus inh
O=C(O)c1oc2ccccc2c1-n1cccc1	2	-4%	-17	/	9
FC(F)(F)c1nnc2ccc(N3CCCCCC3)nn12	-2	-1%	-33	/	-14
CCOc1ccc2[nH]c3c(NCC(C)C)ncnc3c2c1	10	/	/	3.6	/
Nc1nc(SCc2ccccc2Cl)nc2nc3c(cc12)CCCC3	-11	-3%	-11	-0.6	7
COC(=O)c1cc(OC)c(OC)cc1NC(=S)N1CCN(Cc2ccccc2)CC1	-3	-5%	-34	-1.4	1

Next part
SMILES	Mtb betalactam	Mtb H37Rv	YopH inh	RecA splice inh	Arbovirus inh
C=CCNC(=S)/N=c1/ccccn1Cc1ccccc1	1	/	/	-0.4	/
Cc1c(C(=O)N2CCc3ccccc3C2)sc2nc(-c3ccccc3)cn12	7	6%	-11	7.3	-15
O=C(COc1cccc([N+](=O)[O-])c1)N/N=C/c1ccco1	0	1%	/	1.8	2
COc1cc(C)ccc1S(=O)(=O)N1CCCCCC1	-11	-4%	/	/	-10
COC(=O)c1sc(C(C)(C)C)cc1CSc1ccccc1	7	2%	/	6.4	/
CCOC(=O)C1=C(C)C(c2ccc(OC)cc2)NC(=S)N1 (stereo unspecified)	-4	-12%	1	-1.1	9
Cc1ccc(S(=O)(=O)/N=S(\C)CC2CC2(Cl)Cl)cc1 (stereo unspecified)	-8	-6%	-36	-1.1	-3
CN(C)C(CNC(=O)Cc1c(Cl)cccc1Cl)c1ccccc1 (stereo unspecified)	4	5%	/	-3.6	4
Cc1ccc(NC(=O)C2CCN(S(=O)(=O)c3ccc(N4CCCC4=O)cc3)CC2)cc1Cl	5	/	/	-3.8	/
c1ccc(OCc2nn3c(-c4ccncc4)nnc3s2)cc1	8	-8%	-30	-9.7	17
O=C(O)c1[nH]c2ccc([N+](=O)[O-])cc2c1-c1ccccc1	-1	-6%	/	0.6	/
COc1ccc(CN(C(=O)Cn2nnc(-c3ccc(C)o3)n2)C(C(=O)NCC2CCCO2)c2ccco2)cc1 (stereo unspecified)	0	8%	/	-0.9	2
CCOC(=O)c1nn(-c2ccc(Cl)cc2)cc1O	92	1%	/	-2.0	/
COc1ccc(CC(=O)NCc2nnc(SCC(=O)Nc3ccccc3)n2C)cc1	-4	-8%	/	1.4	3
COc1ccccc1C(=O)NNC(=O)C1CCN(C(=O)OC(C)(C)C)CC1	-3	/	/	-0.6	/
COC(=O)C(C(=O)Nc1ccc(OC)cc1)C1CCCCCC1 (stereo unspecified)	-2	-5%	-54	0.1	-3
Clc1ccc2c(N/N=C/c3ccc(Br)cc3)ccnc2c1	27	?	-25	-2.6	-5
O=C(CCNC(=O)c1ccc(Br)o1)NCc1ccccc1Cl	?	-6%	-13	1.9	1
Cc1ccc2nc(N(CCCN(C)C)C(=O)CCc3ccccc3)sc2c1	2	9%	-26	2.6	-38
O=C(Nc1cccnc1)c1cccc(NC(=O)c2ccco2)c1	-14	-9%	-26	5.9	-5
O=c1[nH]c2ccc(S(=O)(=O)Nc3ccc(Cl)cc3)cc2o1	2	/	/	2.2	/
CCn1c(=O)c(C(=O)CN2CCCc3ccccc32)c(N)n(Cc2ccccc2)c1=O	15	-6%	-17	5.4	-11
